Compound activity: PubChem, Johns Hopkins Ion Channel Center
KCNQ2 enhance: enhances the rat KCNQ2 potassium channel. B-score at 10 µM. O88943. CHO-K1 KCNQ2, FluxOR thallium flux fluorescence; hits give high values. hit rate 0.54% among 310,000;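 active = fluorescence ratio B-score at least 3 SD of library B-scores, with initial fluorescence B-score within 3 SD, cut at about 5.3 in these data; same plate scores as AID 2156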;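 also: B-score of peak minus minimum over baseline fluorescence ratio after K+ and Tl+ stimulus; positive B-score means potentiation of KCNQ2 with more thallium influx and brighter signal; only the inactives scoring about 0 or higher are listed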
Target sequence (O88943 whole entry, looked up): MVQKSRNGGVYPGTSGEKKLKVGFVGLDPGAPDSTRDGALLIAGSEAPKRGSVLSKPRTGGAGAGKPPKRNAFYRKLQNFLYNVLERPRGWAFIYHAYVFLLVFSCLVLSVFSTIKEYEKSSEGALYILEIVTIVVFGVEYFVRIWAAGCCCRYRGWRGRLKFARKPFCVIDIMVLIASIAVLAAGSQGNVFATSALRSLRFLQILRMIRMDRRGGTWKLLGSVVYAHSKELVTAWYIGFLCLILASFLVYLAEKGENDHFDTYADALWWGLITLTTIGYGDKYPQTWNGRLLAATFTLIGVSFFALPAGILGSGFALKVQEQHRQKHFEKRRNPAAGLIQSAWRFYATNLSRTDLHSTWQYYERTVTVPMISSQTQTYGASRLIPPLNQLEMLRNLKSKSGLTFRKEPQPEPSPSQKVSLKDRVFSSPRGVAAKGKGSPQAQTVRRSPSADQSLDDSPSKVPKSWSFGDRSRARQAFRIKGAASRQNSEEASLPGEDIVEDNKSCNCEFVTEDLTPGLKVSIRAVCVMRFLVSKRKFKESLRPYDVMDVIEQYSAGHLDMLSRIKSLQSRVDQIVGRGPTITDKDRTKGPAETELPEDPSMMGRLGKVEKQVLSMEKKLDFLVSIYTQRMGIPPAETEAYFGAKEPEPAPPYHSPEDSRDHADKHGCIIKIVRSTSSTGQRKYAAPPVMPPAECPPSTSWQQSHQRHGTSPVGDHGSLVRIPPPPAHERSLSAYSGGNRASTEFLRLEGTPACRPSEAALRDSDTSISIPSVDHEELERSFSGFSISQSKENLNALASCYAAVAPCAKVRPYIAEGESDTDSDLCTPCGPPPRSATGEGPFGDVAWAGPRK
KCNQ2 enhance baseline: second read-out of KCNQ2 enhance, no call of its own (marks repeat the call); B-score; compound at 10 µM; measured here: initial fluorescence intensity artifact check;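 brightness before thallium and not channel activity; 0 = typical well and far values either way flag optical interference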
* = called active by the depositor; & = joins results of further samples. A portion of the library, so the mix of outcomes need not match the whole.

What do the screens show for `Cc1cc(/C=C2\C(=N)N3N=C(CC(=O)N4CCOCC4)SC3=NC2=O)c(C)n1-c1ccccc1`?
KCNQ2 enhance: 0.09; KCNQ2 enhance baseline: -1.9

How did CN(C)c1nc(=NCc2ccco2)ss1 do in these assays?
KCNQ2 enhance: 1; KCNQ2 enhance baseline: -0.03

Results for COc1cccc(/C=N/NC(=O)c2c(C)nc3ccc(Br)cn23)c1 ?
KCNQ2 enhance: 0.48; KCNQ2 enhance baseline: -2.2

How did COc1cccc(/C=C/c2ccc3cccc(O)c3n2)c1OC do in these assays?
KCNQ2 enhance: 0.65; KCNQ2 enhance baseline: 0.72

Results for COCc1cccc(NC(=O)CCc2ccccc2)c1 ?
KCNQ2 enhance: 1.4; KCNQ2 enhance baseline: 0.8

Results for Oc1cccc2c(NC(=S)Nc3ccc(OC(F)F)cc3)cccc12 ?
KCNQ2 enhance: 0.07; KCNQ2 enhance baseline: -0.42

Results for O=C(Nc1cccc(NC(=O)c2ccc3c(c2)OCO3)c1)c1ccccc1 ?
KCNQ2 enhance: 1.5; KCNQ2 enhance baseline: 1.6

Results for CC(=O)c1ccc(N2CCN(C(=O)CCCn3c(=O)[nH]c4ccccc4c3=O)CC2)cc1 ?
KCNQ2 enhance: 1.7; KCNQ2 enhance baseline: -0.03

Results for Cc1cc(C(=O)N/N=C/c2ccc(-c3cccc(Cl)c3)o2)n[nH]1 ?
KCNQ2 enhance: 2; KCNQ2 enhance baseline: 0.14

What do the screens show for `O=S1(=O)CC(O)C(Nc2ccccc2)C1` (centres undefined)?
KCNQ2 enhance: 0.13; KCNQ2 enhance baseline: 1.1

How did CCOC(=O)c1ccc(N2C(=O)CC(NNC(=O)c3ccc(Br)s3)C2=O)cc1 (centres undefined) do in these assays?
KCNQ2 enhance: 1.8; KCNQ2 enhance baseline: -1.8

How did CCS(=O)(=O)Nc1ccc(Cc2ccncc2)cc1 do in these assays?
KCNQ2 enhance: 1.2; KCNQ2 enhance baseline: 0.15

What do the screens show for `CCc1ccc2oc(-c3cc(N)ccc3O)nc2c1`?
KCNQ2 enhance: 0.28; KCNQ2 enhance baseline: -0.84

Results for COc1ccc(CCN2CC(C(=O)O)CC2=O)cc1OC (centres undefined) ?
KCNQ2 enhance: 0.06; KCNQ2 enhance baseline: -0.65

What do the screens show for `COc1ccc(CC(=O)Nc2ccc3c(c2)C(=O)N(CCC(=O)O)C3=O)cc1`?
KCNQ2 enhance: 1.1; KCNQ2 enhance baseline: 0.06

Results for CCCS(=O)(=O)NCCc1csc(-c2ccc(OC)c(OC)c2)n1 ?
KCNQ2 enhance: 2.5; KCNQ2 enhance baseline: -0.04

How did COC(=O)c1cc(NS(=O)(=O)c2ccc(C(C)C)cc2)ccc1N1CCOCC1 do in these assays?
KCNQ2 enhance: 2.4; KCNQ2 enhance baseline: -0.81

What do the screens show for `Cc1c(C(=O)NNC(=S)Nc2ccc(S(N)(=O)=O)cc2)oc2ccccc12`?
KCNQ2 enhance: 1.7; KCNQ2 enhance baseline: -0.68

What do the screens show for `Cc1nnc2c(NCC(C)c3ccccc3)nc3ccccc3n12` (centres undefined)?
KCNQ2 enhance: 1.4; KCNQ2 enhance baseline: -1.1

How did COc1ccc(CNC(=O)CCN2C(=O)c3ccccc3S2(=O)=O)cc1 do in these assays?
KCNQ2 enhance: 0.03; KCNQ2 enhance baseline: -0.3

How did CC(C)c1ccccc1NC(=O)COC(=O)C1(C)CC1(Cl)Cl (centres undefined) do in these assays?
KCNQ2 enhance: 0.91; KCNQ2 enhance baseline: -0.41

How did O=C(COC(=O)C1CC2C=CC1C2)NCc1ccc(F)cc1 (centres undefined) do in these assays?
KCNQ2 enhance: 0.06; KCNQ2 enhance baseline: -0.14

What do the screens show for `CCOc1ccc(-n2c(C)c(C(C)=O)c3cc(OC(C)=O)ccc32)cc1`?
KCNQ2 enhance: 0.78; KCNQ2 enhance baseline: 0.81

Results for COc1ccc(NC(=O)c2sc(SC)nc2N)cc1 ?
KCNQ2 enhance: 1.7; KCNQ2 enhance baseline: -0.51

Results for COc1ccc(C(=O)NC(C)Cn2nc(C)cc2C)cc1OC1CCN(C(C)=O)CC1 (centres undefined) ?
KCNQ2 enhance: 0.5; KCNQ2 enhance baseline: 0.93

Results for Cc1nnc(NC(=O)CSc2nccn2Cc2ccccc2)s1 ?
KCNQ2 enhance: 0.55; KCNQ2 enhance baseline: -1.5

Results for O=[N+]([O-])c1ccc(-c2ccc(S(=O)(=O)NCCN3CCCC3)cc2)cc1 ?
KCNQ2 enhance: 0.57; KCNQ2 enhance baseline: 0.27

Results for CC(C)C(=O)Nc1cccc(NC(=O)c2cccnc2)c1 ?
KCNQ2 enhance: 1.9; KCNQ2 enhance baseline: -1

How did Cc1csc2ncc(C(=O)Nc3ccccc3F)c(=O)n12 do in these assays?
KCNQ2 enhance: 0.07; KCNQ2 enhance baseline: 0.58

What do the screens show for `CS(=O)(=O)NCc1nnc(SCc2ccccc2C(F)(F)F)o1`?
KCNQ2 enhance: 0.06; KCNQ2 enhance baseline: 0.86

What do the screens show for `CC(=O)Nc1cccc(-n2nnc(SCC(=O)c3ccccc3)n2)c1`?
KCNQ2 enhance: 1.4; KCNQ2 enhance baseline: 0.01

What do the screens show for `N#Cc1c2c(c(NCCOCCO)n3c1nc1ccccc13)CCCC2`?
KCNQ2 enhance: 1.1; KCNQ2 enhance baseline: -0.47

Results for O=[N+]([O-])c1cc(C(F)(F)F)ccc1NCCCCNS(=O)(=O)c1ccc(Cl)cc1 ?
KCNQ2 enhance: 0.01; KCNQ2 enhance baseline: -0.3

What do the screens show for `COc1cccc(C(=O)Nc2ccccc2C(=O)NC2CC2)c1`?
KCNQ2 enhance: 0.02; KCNQ2 enhance baseline: -2.2

What do the screens show for `CCC(=O)NNc1nc2c(C)cc(C)cc2s1`?
KCNQ2 enhance: 1.8; KCNQ2 enhance baseline: -0.88

How did COc1ccc(CCNC(=O)c2ccc3nc[nH]c3c2)cc1 do in these assays?
KCNQ2 enhance: 0.23; KCNQ2 enhance baseline: 0.2

Results for COc1ccc(CN2CC(C(=O)N3CC(C)CC(C)C3)CC2=O)cc1 (centres undefined) ?
KCNQ2 enhance: 2.8; KCNQ2 enhance baseline: 0

Results for C#Cc1cccc(NC(=O)Cc2cccs2)c1 ?
KCNQ2 enhance: 1.2; KCNQ2 enhance baseline: -2.6

Results for CCOC(=O)c1ccc(NC(=O)NC2CC3CCC(C2)N3C(=S)NC)cc1 (centres undefined) ?
KCNQ2 enhance: 0.01; KCNQ2 enhance baseline: -0.85

What do the screens show for `O=C(O)CCSc1ccc2ccccc2n1`?
KCNQ2 enhance: 0.44&1.1; KCNQ2 enhance baseline: -0.4&0.77

Results for COc1ccc(CNC(=S)N/N=C/c2ccc(OC)c(OC)c2)cc1 ?
KCNQ2 enhance: 1.1; KCNQ2 enhance baseline: -0.4

What do the screens show for `CNCc1c(C)nn(-c2ccccc2)c1C`?
KCNQ2 enhance: 10*; KCNQ2 enhance baseline: -1.6*

Results for COc1ccc(N2CCN(C(=O)c3ccccc3NC(=O)C3=C(C)OCCS3)CC2)cc1 ?
KCNQ2 enhance: 0.11; KCNQ2 enhance baseline: 0.58

What do the screens show for `C=CCSc1nnc(CNC(=O)c2ccccc2C)n1C(C)C`?
KCNQ2 enhance: 0.06; KCNQ2 enhance baseline: 1.5

How did Nc1nc(Cn2nnc(-c3ccccc3F)n2)nc(N2CCOCC2)n1 do in these assays?
KCNQ2 enhance: 0.81; KCNQ2 enhance baseline: -0.12

Results for CCOC(=O)c1ccc2c(c1)nc(C)n2CC ?
KCNQ2 enhance: 2.1; KCNQ2 enhance baseline: -0.7

What do the screens show for `O=C(CCCC(=O)N(CC(=O)NC1CCCCC1)Cc1ccc2c(c1)OCO2)Nc1ccccn1`?
KCNQ2 enhance: 0.06; KCNQ2 enhance baseline: 0.15

How did O=C(Nc1ccccc1)c1cc2ccccc2c(=O)s1 do in these assays?
KCNQ2 enhance: 1.1; KCNQ2 enhance baseline: 1.7

How did Cc1ccc(NC(=O)CC(=O)c2ccccc2)cc1C do in these assays?
KCNQ2 enhance: 1.1; KCNQ2 enhance baseline: 0.04

How did CCN1C(=O)/C(=C/c2cnn(CC)c2C)SC1=S do in these assays?
KCNQ2 enhance: 1; KCNQ2 enhance baseline: 0.29

Results for COc1ccc(NS(=O)(=O)c2ccc(-n3nnc4ccccc43)c([N+](=O)[O-])c2)cc1 ?
KCNQ2 enhance: 0.2; KCNQ2 enhance baseline: -1.1

What do the screens show for `CCOC(=O)C1CCCN(C(=O)C2CCN(S(=O)(=O)CC)CC2)C1` (centres undefined)?
KCNQ2 enhance: 1.9; KCNQ2 enhance baseline: 0.78

Results for COc1ccc2c3c(cccc13)C(=O)N(O)C2=O ?
KCNQ2 enhance: 0.02; KCNQ2 enhance baseline: 1.1

What do the screens show for `O=C(/C=C/c1ccccc1)NC(=S)Nc1cccnc1`?
KCNQ2 enhance: 0.62; KCNQ2 enhance baseline: 2

Results for NC(N)=Nc1nc2ccccc2o1 ?
KCNQ2 enhance: 0.89; KCNQ2 enhance baseline: 0.14

What do the screens show for `C=CCn1cccc(C(=O)Nc2ccc(OCC)cc2)c1=O`?
KCNQ2 enhance: 1.3; KCNQ2 enhance baseline: -1.3

How did O=C1CC(N2CCN(c3ccccc3Cl)CC2)C(=O)N1c1cccc(F)c1 (centres undefined) do in these assays?
KCNQ2 enhance: 0.22; KCNQ2 enhance baseline: 1.3

What do the screens show for `CCOC(=O)CSc1ccc(C(=O)NCCCN2CCOCC2)cc1[N+](=O)[O-]`?
KCNQ2 enhance: 0.28; KCNQ2 enhance baseline: 1.6

How did O=C(NC1CCCCCCC1)c1cc([N+](=O)[O-])ccc1Cl do in these assays?
KCNQ2 enhance: 0.01; KCNQ2 enhance baseline: -0.74

What do the screens show for `COC(=O)Cn1c(=NC(=O)c2nc3ccccc3s2)sc2cc(S(N)(=O)=O)ccc21`?
KCNQ2 enhance: 0.99; KCNQ2 enhance baseline: -2.6

Random excerpt: 3 records from the list.
What do the screens show for `CCOC(=O)C1CCCN(C(=O)C2CCN(S(=O)(=O)CC)CC2)C1` (centres undefined)?
KCNQ2 enhance: 1.9; KCNQ2 enhance baseline: 0.78

What do the screens show for `O=C(/C=C/c1ccccc1)NC(=S)Nc1cccnc1`?
KCNQ2 enhance: 0.62; KCNQ2 enhance baseline: 2

What do the screens show for `COC(=O)Cn1c(=NC(=O)c2nc3ccccc3s2)sc2cc(S(N)(=O)=O)ccc21`?
KCNQ2 enhance: 0.99; KCNQ2 enhance baseline: -2.6

Four consecutive entries from above:
How did Cc1ccc(NC(=O)CC(=O)c2ccccc2)cc1C do in these assays?
KCNQ2 enhance: 1.1; KCNQ2 enhance baseline: 0.04

How did CCN1C(=O)/C(=C/c2cnn(CC)c2C)SC1=S do in these assays?
KCNQ2 enhance: 1; KCNQ2 enhance baseline: 0.29

Results for COc1ccc(NS(=O)(=O)c2ccc(-n3nnc4ccccc43)c([N+](=O)[O-])c2)cc1 ?
KCNQ2 enhance: 0.2; KCNQ2 enhance baseline: -1.1

What do the screens show for `CCOC(=O)C1CCCN(C(=O)C2CCN(S(=O)(=O)CC)CC2)C1` (centres undefined)?
KCNQ2 enhance: 1.9; KCNQ2 enhance baseline: 0.78

Further entries follow:
How did Cc1ccc(S(=O)(=O)Cc2cc(-c3ccc(Cl)cc3)no2)cc1 do in these assays?
KCNQ2 enhance: 2.6; KCNQ2 enhance baseline: -0.64

What do the screens show for `Cc1ccc(C(=O)OCC(=O)Nc2ccc3[nH]c(=O)[nH]c3c2)cc1S(=O)(=O)N1CCOCC1`?
KCNQ2 enhance: 0.38; KCNQ2 enhance baseline: 1.7

What do the screens show for `CCCNC(=O)C(Cc1ccccc1)NS(=O)(=O)c1cccc2nsnc12` (centres undefined)?
KCNQ2 enhance: 0.92; KCNQ2 enhance baseline: 0.78

How did O=C(CCNC(=O)c1ccccc1Cl)N/N=C\c1ccc(O)cc1 do in these assays?
KCNQ2 enhance: 0.59; KCNQ2 enhance baseline: -0.58

What do the screens show for `CCNC(=O)CC1C(=O)N(c2ccccc2)C(=O)N1Cc1ccc(OC)cc1` (centres undefined)?
KCNQ2 enhance: 0.69; KCNQ2 enhance baseline: -0.68

How did CC(C)COc1ccc(CNC(=S)Nc2ccccc2)cc1Cl do in these assays?
KCNQ2 enhance: 0.01; KCNQ2 enhance baseline: 0.69

Results for O=C1c2cccnc2C(Nc2ccc(S(=O)(=O)N3CCCCC3)cc2)N1Cc1ccccc1 (centres undefined) ?
KCNQ2 enhance: 0.46; KCNQ2 enhance baseline: -0.21

How did O=C(CNC(=S)N(CCCN1CCOCC1)Cc1cccs1)NCCN1CCOCC1 do in these assays?
KCNQ2 enhance: 0.01; KCNQ2 enhance baseline: -0.4

Results for Cn1c(N)c(C(=O)CSc2nnc(-c3ccccc3F)n2N)c(=O)n(C)c1=O ?
KCNQ2 enhance: 0.35; KCNQ2 enhance baseline: 1.2

How did O=C(NCc1ccccc1)C(c1ccncc1)N(C(=O)c1csnn1)C1CC1 (centres undefined) do in these assays?
KCNQ2 enhance: 0.05; KCNQ2 enhance baseline: 0.39

Results for O=C(NCc1cccs1)c1ccncc1 ?
KCNQ2 enhance: 0.16; KCNQ2 enhance baseline: 1.8

Results for Cc1cc(=O)[nH]c(SCC(=O)Nc2nnc(CC(C)C)s2)n1 ?
KCNQ2 enhance: 0.11; KCNQ2 enhance baseline: -0.77

What do the screens show for `CCN(C/C=C/c1ccccc1OC)Cc1ccccc1`?
KCNQ2 enhance: 0.65; KCNQ2 enhance baseline: 0.4

How did COc1cc(OC)c(C(=O)NCc2ccc3c(c2)OCO3)cc1OC do in these assays?
KCNQ2 enhance: 0.55; KCNQ2 enhance baseline: -1.2

What do the screens show for `O=C(COC(=O)c1ccccc1Nc1ccccc1)Nc1ccccc1`?
KCNQ2 enhance: 5.8*; KCNQ2 enhance baseline: -1.7*
